Source: PubChem BioAssay (several laboratories)
Arbovirus anti: arbovirus infection inhibition. arbovirus infection cell-based antiviral screen. inhibition, % at 10 µM. 200,000 tested, 0.37% active;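 active = inhibition from about 30%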;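 note: bluetongue infection of BSR cells; cell survival read as ATP light after 72 h; 0% = infected wells without compound and 100% = uninfected wells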
YopH PTP inh: inhibitors of Yersinia enterocolitica YopH tyrosine phosphatase; fluorescence Ex485/Em525; 140,000 tested, 0.16% active; inhibition, %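 (about 10 µM by stock and volumes)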;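 active = inhibition of 50% or more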;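 note: controls were vehicle for no effect and minimum signal wells for full effect; inactives centre near -20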
Mtb H37Rv: M. tuberculosis H37Rv growth inhibitors, H37Rv strain (AID 1626) | M. tuberculosis H37Rv growth inhibition; higher % means a stronger effect | one-dose inhibition, % at 10 µM; IC50 in µM for titrated hits | 220,000 tested, 0.95% active;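 active = confirmed in a dose series; inconclusive = inhibition above 80% but not taken into the dose series; inactive = below 80% or under 30% at every dose of the series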;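 note: bacteria incubated seven days before Alamar blue readout; 0% = bacteria only wells and 100% = bacteria with antibiotic wells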
Mtb bLac sens: beta-lactam sensitization of Mtb H37Rv. AID 434955. 330,000 tested, 0.27% active. M. tuberculosis H37Rv growth with meropenem, percent inhibition; hits of this screen are not shown here. inhibition, % at 25 µM;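 active = about 74% or more and at least 40 points above the plate without the antibiotic, then above 30% in a dose series; inconclusive = first-round hits that could not be retested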;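 note: growth measured after seven days incubation then overnight dye step; 0% = bacteria only wells and 100% = bacteria with antibiotic; twin plates without the antibiotic show which effects depend on it; some results filed as inactive read as strong as hits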
RecA intein inh: Mtb RecA intein splicing inhibition; P9WHJ3; cell-free RecA intein splicing, fluorescence; inhibition, %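 (about 9 µM by stock and volumes)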; 290,000 tested, 0.75% active; in the data active = inhibition above about 30%; inconclusive = no clear call, values can overlap the other calls;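 note: 0% = vehicle wells and 100% = reference inhibitor control wells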
Target sequence (P9WHJ3 whole entry, looked up): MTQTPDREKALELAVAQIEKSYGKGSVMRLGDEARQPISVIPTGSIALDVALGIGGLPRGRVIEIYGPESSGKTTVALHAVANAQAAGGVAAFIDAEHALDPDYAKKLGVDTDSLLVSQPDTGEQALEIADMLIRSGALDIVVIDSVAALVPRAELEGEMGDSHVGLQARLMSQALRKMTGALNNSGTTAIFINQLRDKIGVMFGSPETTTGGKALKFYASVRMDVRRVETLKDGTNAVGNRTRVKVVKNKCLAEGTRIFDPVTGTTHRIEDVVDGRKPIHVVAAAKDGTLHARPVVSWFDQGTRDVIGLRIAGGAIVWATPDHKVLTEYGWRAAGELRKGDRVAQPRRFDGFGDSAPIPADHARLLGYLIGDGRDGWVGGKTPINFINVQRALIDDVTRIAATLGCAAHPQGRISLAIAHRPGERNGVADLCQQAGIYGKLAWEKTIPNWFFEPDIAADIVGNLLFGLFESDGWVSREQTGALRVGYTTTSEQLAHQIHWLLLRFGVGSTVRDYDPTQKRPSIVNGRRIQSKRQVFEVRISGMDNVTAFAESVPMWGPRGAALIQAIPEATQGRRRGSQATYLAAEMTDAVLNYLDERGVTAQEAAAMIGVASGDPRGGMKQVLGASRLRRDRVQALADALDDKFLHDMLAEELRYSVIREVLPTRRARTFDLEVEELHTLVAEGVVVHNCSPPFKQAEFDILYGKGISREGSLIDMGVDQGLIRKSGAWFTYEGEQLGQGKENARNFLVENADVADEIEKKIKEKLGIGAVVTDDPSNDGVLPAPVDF
Arbovirus anti repeat: second read-out of Arbovirus anti, no call of its own (marks repeat the call); inhibition, %; measured here: 10K subset replicate screen; many hits read low in the repeat;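 first of two repeat runs on a subset; 0% = infected and 100% = uninfected wells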
Numbers without * were called inactive; i = inactive; u = inconclusive; x = not tested or not shown. These rows are one share of the data. The share of hits here may be higher or lower than overall.

SMILES | Arbovirus anti | YopH PTP inh | Mtb H37Rv | Mtb bLac sens | RecA intein inh | others
CCn1cc(C(=O)N2CCCCC2)c2ccccc21 | 2.1 | x | -0.8% | 0.0 | 0.4
Cc1ccc(CN2CCNC(=O)C2CC(=O)O)o1 (stereo unspecified) | 13.9 | -37.3 | -1.7% | 3.4 | -3.0 | Arbovirus anti repeat=-2.1
CC(Oc1ccc(Cl)cc1Cl)c1ccnc(N)n1 (stereo unspecified) | -0.9 | x | 3.9% | -4.9 | x
N=C(N)c1ccc(O)cc1 | 1.2 | x | 1.6% | 2.0 | -5.3
Cc1cccc(NCC(=O)N/N=C\c2cccc(Oc3ccccc3)c2)c1 | 6.7 | -26.2 | 12.7% | 0.3 | 3.9
CCOC(=O)Cc1csc(NC(=O)CSc2nnc(-c3ccncc3)n2Cc2ccco2)n1 | x | 17.7 | 4.8% | 0.1 | -1.1
CC1=NNC(=O)C1CCC(=O)N/N=C/c1ccccc1 (stereo unspecified) | x | x | 0.4% | -7.4 | -2.5
COc1cccc(/C=C2\SC(=S)N(CCCC(=O)N3CCCC3)C2=O)c1 | x | x | x | 70.9 | 32.9*
O=C(O)Cc1ccc(NCc2ccccc2Cl)cc1 | 0.5 | x | -1.1% | -7.0 | -3.8
Cc1nccn1CC(=O)N/N=C/c1cccs1 | x | x | -13.7% | -3.7 | -1.5
Cc1ccc(-c2cn3nc(-c4ccccc4)c(-c4ccccc4)nc3n2)cc1 | x | x | -1.3% | -3.6 | -313.3
O=C(CSc1n[nH]c(-c2ccccn2)n1)Nc1cccc(Cl)c1 | x | x | x | 99.2 | -3.8

Structural class, the compounds so far containing sulfur (4)
SMILES | Arbovirus anti | YopH PTP inh | Mtb H37Rv | Mtb bLac sens | RecA intein inh | others
CCOC(=O)Cc1csc(NC(=O)CSc2nnc(-c3ccncc3)n2Cc2ccco2)n1 | x | 17.7 | 4.8% | 0.1 | -1.1
COc1cccc(/C=C2\SC(=S)N(CCCC(=O)N3CCCC3)C2=O)c1 | x | x | x | 70.9 | 32.9*
Cc1nccn1CC(=O)N/N=C/c1cccs1 | x | x | -13.7% | -3.7 | -1.5
O=C(CSc1n[nH]c(-c2ccccn2)n1)Nc1cccc(Cl)c1 | x | x | x | 99.2 | -3.8

(continued)
SMILES | Arbovirus anti | YopH PTP inh | Mtb H37Rv | Mtb bLac sens | RecA intein inh | others
COC(=O)c1ccc(OC)c(OC)c1Cl | x | x | -5.7% | 3.5 | 0.2
CN(c1cccc(Cl)c1)S(=O)(=O)c1cccc(C(=O)Nc2nc3ccccc3[nH]2)c1 | -8.5 | -16.0 | u | 56.7 | 7.9
O=C(O)c1c2c(nc3ccc(S(=O)(=O)N4CCC(C(=O)N5CCCCC5)CC4)cc13)CCCC2 | 2.1 | -35.6 | -9.7% | -2.4 | x | Arbovirus anti repeat=9.4
CNC(=O)CN(c1cccc(Br)c1)S(C)(=O)=O | 3.4 | -10.6 | -3.8% | -7.4 | x
COCCNC(=O)NC(=O)CN1C(=O)NC(Cc2c[nH]c3ccccc23)C1=O (stereo unspecified) | x | x | x | -5.6 | -0.3
CCc1ccc(NC(=O)[C@H](Cc2ccccc2)NC(=O)C2CCN(C(=O)[C@@H](N)CC(C)C)CC2)cc1 | x | x | x | 3.5 | 1.7
CC(Sc1ccccc1)C(=O)NN=C1CCCCCCC1 (stereo unspecified) | 1.3 | x | -1.9% | 1.2 | 1.5
CCOc1ccc(S(=O)(=O)NCc2ccco2)c2ccccc12 | 0.3 | 1.7 | 4.6% | -1.8 | 9.2
O=C(NCc1ccco1)C(Cc1ccccc1)N1C(=O)C2C3C=CC(C3)C2C1=O (stereo unspecified) | 6.2 | -29.6 | 3.7% | -4.7 | 1.1
O=C(c1ccc2oc(CCCc3ccccc3)nc2c1)N1CCCC1 | x | x | x | 11.8 | 2.4
CCN(Cc1ccncc1)C(=O)CCc1nnc(CCC2CCCCC2)o1 | 4.0 | x | -6.6% | -2.8 | -0.7
CCOC(=O)C1(Cc2cccc(Cl)c2)CCCN(C(=O)c2cnn(CC)c2)C1 (stereo unspecified) | x | x | x | -4.6 | -0.2
CCNC(=O)[C@H]1O[C@@H](n2cnc3c(N)nc(NCCc4ccc(CCC(=O)O)cc4)nc32)[C@H](O)[C@@H]1O | x | x | -4.0% | -2.1 | -1.6
CC(NC(=O)Nc1nccs1)(C(F)(F)F)C(F)(F)F | -1.8 | -3.6 | -9.3% | -6.0 | 0.9
N/C(=N\OC(=O)CCC1CCCCC1)c1cccnc1 | -1.3 | -35.7 | -19.1% | -5.3 | -0.4
O=C(CSCC(=O)Nc1nccs1)Nc1ccccc1 | -3.7 | -38.7 | 7.2% | 13.6 | -1.3
O=C(CCc1ccccc1)Nc1c(F)c(F)c(F)c(F)c1F | -4.7 | -33.1 | -2.4% | x | 1.9
C=CCOc1ccc(C2/C(=C(\O)c3ccc(F)cc3)C(=O)C(=O)N2CCCN(C)C)cc1 (stereo unspecified) | -1.3 | -36.2 | -15.0% | 16.8 | -1.4
CC(C)NCC(O)(c1ccc(Cl)cc1)c1ccc(Cl)cc1 | -29.7 | x | 5.6% | 3.6 | 1.0
CN(C)/C=C/C(=O)c1ccc(C(F)(F)F)cc1F | 0.1 | x | -7.9% | 0.0 | -3.8
Oc1c(Cl)cc(Cl)c2cccnc12 | -18.1 | x | 0.779µM* | x | 5.5
O=C(COc1cccc(C(F)(F)F)c1)Nc1ccc(S(=O)(=O)N2CCCCC2)cc1 | x | x | x | -6.2 | -0.8
Clc1cccc(OCCCn2ccnc2)c1 | x | x | x | -9.4 | 0.1
Cc1ccc(/C=C/C(=O)NC2CCS(=O)(=O)C2)cc1 (stereo unspecified) | 6.8 | x | -1.9% | 0.7 | 1.8
C=CCNC(N)=S | x | x | x | 1.5 | 0.5
CC(C)(C)C(=O)CSc1ncnc2c1cnn2-c1ccccc1 | x | x | 9.8% | 54.9 | 0.6
COc1ccc(C2CC(c3cccs3)=NN2c2ccc(C=O)cc2)cc1 (stereo unspecified) | -29.3 | -15.1 | 8.7% | -6.1 | i
CC(C)NC(=O)NC(=O)COC(=O)c1cc[n+]([O-])cc1 | -1.4 | x | 1.5% | -6.1 | -1.8
O=c1c2ccccc2nc2ccc(N3CCOCC3)nn12 | 0.6 | -40.7 | -15.0% | -4.6 | -2.3
COc1ccc(N2C(=O)CC(Sc3ncn[nH]3)C2=O)c(OC)c1 (stereo unspecified) | 5.0 | -37.8 | -2.7% | 3.3 | 3.6
CCc1nccn1S(=O)(=O)c1ccc2ccc(C)cc2c1 | 0.1 | 1.0 | -3.5% | 12.3 | 0.4
COc1ccc(/C=N/NC(=O)Cn2nc([N+](=O)[O-])cc2C)c(OC)c1OC | x | x | -10.8% | -8.8 | 3.9
COc1ccc(S(=O)(=O)N2CCCCC2)cc1NC(=O)c1cccnc1SC | x | x | -5.2% | 2.2 | 3.0
c1ccc(CN(Cc2ccccc2)c2c3c(nc4ncnn24)CCC3)cc1 | x | x | -0.1% | -5.1 | 3.5
Cc1cc(C)nc(SCc2ccc(C(=O)N/N=C/c3cccnc3)cc2)n1 | -2.5 | x | 4.2% | 2.9 | -0.7
O=C(CCN1CCN(Cc2ccccc2)CC1)Nc1cccc(Cl)c1 | 7.5 | -11.9 | -5.8% | -2.2 | 1.2
Cc1nc(NC(=O)COC(=O)CCC(=O)c2cccs2)c(Cl)cc1Cl | 4.2 | -26.5 | -7.6% | -5.2 | x
COCC(=O)OCC(=O)Nc1ccc(Cl)cc1[N+](=O)[O-] | 6.8 | x | 5.4% | 1.9 | 0.6
CN1C(=O)C2(Nc3ccccc3-c3nc4ccccc4n32)c2ccccc21 (stereo unspecified) | -5.2 | -21.5 | 76.6% | 29.2 | 2.7
O=C(O)CCCc1ccc2ccc3cccc4ccc1c2c34 | x | x | x | 78.5 | 2.5
CCN(CC)CCCN(Cc1cc2cc3c(cc2[nH]c1=O)OCO3)C(=S)NCCCN(C)C | x | x | x | -2.8 | -3.2
Cc1ccc(-n2cc(CNCCc3cscn3)c(-c3ccc(F)cc3)n2)cc1 | -38.7 | x | 12.7% | 98.2 | 5.0
CC(C)NC(=O)c1c(CSc2ccccc2)noc1C(=O)NCc1ccccc1 | x | x | 5.7% | -12.9 | 5.3
COc1ccccc1CNC(=O)CCS(=O)(=O)c1ccc2c(c1)CCN2C(C)=O | x | x | x | 5.6 | -0.9
Cc1sc2c(c1C)c(=O)n(-c1ccccc1)c1nnc(C)n21 | 3.8 | -33.9 | 0.3% | 2.6 | x
CCOCCc1c(O)nc(SCCOc2ccc(C)c(C)c2)[nH]c1=O | 1.5 | x | -4.7% | 0.4 | 3.1
CCc1ccc(CN(C)C(=O)CCc2nnc(-c3ccc(-c4ccccc4)cc3)o2)nc1 | -1.4 | x | 7.5% | 14.6 | -9.3
COc1ccc(OC)c(-c2cc(C(=O)Nc3cc(C)on3)no2)c1 | -9.5 | -16.4 | 6.2% | -12.9 | -0.5
CC(C)=CCc1cc2c(=O)c3c(O)c4c(cc3oc2c(O)c1O)OC(C)C4(C)C (stereo unspecified) | x | x | -2.1% | 1.2 | -2.7
CC(C)(C)C1CCC(OC(=O)c2cncc(Br)c2)CC1 (stereo unspecified) | 2.0 | x | 27.5% | -6.1 | 1.5
COCCCN(C(=O)c1ccco1)c1nc(-c2cc(OC)ccc2OC)cs1 | -15.7 | -24.4 | 0.5% | 77.9 | 2.4
CC(C)C(=O)Nc1cccc(C(=O)OCC(=O)c2ccc(Cl)cc2Cl)c1 | -2.5 | 8.3 | -5.1% | 7.2 | -2.0
O=C(O)CC12CC3CC(C1)CC(n1cncn1)(C3)C2 | 6.3 | x | -2.1% | -4.7 | 1.3
O=C(O)CCC(=O)Nc1nc(-c2ccccc2)cs1 | -0.6 | 9.1 | -0.4% | -18.1 | 0.2
CC1CCCN(S(=O)(=O)c2ccc3c(c2)c(=O)nc2ccccn23)C1 (stereo unspecified) | x | x | x | -3.8 | -1.9
Fc1cc(F)nc(NCc2ccccc2)n1 | x | x | x | -6.2 | -2.4
Cc1cc(NC(=O)CSc2ncccc2C(=O)O)no1 | 8.8 | x | -3.5% | -2.9 | -3.0
CSc1nc(-c2ccc(Cl)cc2)nn1S(=O)(=O)c1ccc(Cl)cc1 | 7.2 | -8.8 | 3.8% | 42.3 | -0.6
COc1ccc2c(c1OC)C(=O)N1C2SC(C)(C)[C@H]1C(=O)NC1CC1 (stereo partly specified) | x | x | x | -9.0 | -3.3
C=CCOc1ccccc1C1NC(=O)NC(C)=C1C(=O)NCc1ccccc1 (stereo unspecified) | 6.3 | -5.6 | 2.3% | -5.1 | -0.4
Further records.
SMILES | Arbovirus anti | YopH PTP inh | Mtb H37Rv | Mtb bLac sens | RecA intein inh | others
S=c1[nH]nc(-c2ccccc2)n1C1C=CCCC1 (stereo unspecified) | -0.2 | -46.3 | -2.6% | -7.8 | 10.3 | Arbovirus anti repeat=9.1
COC(=O)c1cc(=O)n(Cc2cccs2)c(=NCc2cccs2)s1 | -2.5 | -42.0 | -0.9% | -1.5 | -3.6
O=C(Oc1cccc(-n2cnnn2)c1)c1ccccc1Cl | -2.7 | x | -5.8% | -15.7 | 9.5
COCCSc1nc(N)c(NC(=O)c2ccc(OC)cc2)c(=O)[nH]1 | 3.9 | x | -3.9% | 2.6 | -1.1
CCC(=O)Nc1ccccc1C(=O)NC1CCCCC1 | 4.0 | -17.5 | -3.1% | -10.3 | x
CNC(=O)CC1C(=O)N(Cc2ccccc2)C(=S)N1NC(=O)c1cccc(F)c1 (stereo unspecified) | -5.7 | -29.9 | 5.0% | 1.4 | 0.7
CN1CCN(C(=O)CN(c2cccc(Cl)c2)S(=O)(=O)c2ccccc2)CC1 | 9.7 | -41.1 | -10.0% | 3.2 | -4.3
O=C(O)CC/C(=C\c1ccc2c(c1)OCO2)c1nc2ccccc2s1 | x | x | x | 5.6 | -1.7
Cc1ccc(C(=O)N/N=C\c2cccc(OC(=O)c3cccc(F)c3)c2)cn1 | x | x | x | 5.0 | -1.0
CC(C)CNC(=O)NC1C(NC(=O)NCC(C)C)N(C)C(=O)N1C (stereo unspecified) | 5.2 | 9.5 | -2.1% | 3.4 | -2.1
O=C(N/C(=C/c1ccc(Br)cc1)C(=O)N1CCCC1=O)c1ccco1 | 1.9 | x | -0.8% | 1.9 | 2.8
COc1ccc(COc2cc(-c3cccc(OC)c3)nc3ccc(NC(C)=O)cc23)cc1 | -15.1 | -18.2 | -1.8% | -2.5 | -3.3
Oc1ccccc1CNc1cccc2cccnc12 | 1.6 | x | -1.8% | -1.5 | 3.9
CCOC(=O)C(NC(=O)Nc1cccc(C)n1)(OCC(F)(F)F)C(F)(F)F (stereo unspecified) | -0.3 | -50.6 | 0.6% | 12.9 | -0.7
O=C(Cc1ccccc1[N+](=O)[O-])NCc1ccc(Cl)cc1Cl | 5.1 | -19.9 | 10.8% | 7.2 | 2.0
